Assay outcomes (PubChem)
HSV augment = enhancers of HSV replication in host cells, fold increase, host cell viability | HSV replication augmentation in cells | 0.005% of 220,000 active | maximum fold increase;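 active = peak rise of 1.5-fold or more in the series; tested in PC3 cells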;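 also: first round at 10 µM; read as green reporter fluorescence; hits show the peak of a series up to 25 µM; 1 = signal of infected wells without compound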
GALR2 agonist = GALR2 receptor agonists, primary screen, cell-based | Galanin receptor type 2 (Homo sapiens), O43603 | 0.48% of 140,000 active | GALR2-expressing cells, agonist activation read-out | activation, %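 (tested at 5 µM)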;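 active = above mean plus 3 SD of all compounds, about 5% in these data, not always enough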;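 also: 0% = vehicle buffer wells and 100% = reference agonist at full effect; tested in CHO reporter cells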
Target sequence (O43603 whole entry, looked up): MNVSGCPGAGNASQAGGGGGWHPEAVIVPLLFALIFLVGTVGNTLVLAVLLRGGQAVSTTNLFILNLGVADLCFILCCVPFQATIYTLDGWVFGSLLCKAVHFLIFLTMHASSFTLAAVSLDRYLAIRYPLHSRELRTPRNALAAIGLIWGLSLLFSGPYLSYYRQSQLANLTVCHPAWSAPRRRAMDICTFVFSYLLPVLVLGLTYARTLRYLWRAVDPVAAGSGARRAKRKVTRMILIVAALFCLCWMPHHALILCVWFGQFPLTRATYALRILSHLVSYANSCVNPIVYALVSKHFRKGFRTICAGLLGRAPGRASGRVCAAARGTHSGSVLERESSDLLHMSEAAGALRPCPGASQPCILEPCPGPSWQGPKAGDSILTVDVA
INS promoter inh = inhibitors of insulin promoter-driven GFP, primary screen, imaging, TRM-6 cells (human fetal islet line), eGFP reporter, cell count | AID 1273, 2008 | inhibition, % at 2 µM | reporter expression induced with tamoxifen | 0.9% of 130,000 active;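 active = inhibition above the mean plus 3 SD, with well images judged a real hit on visual review, cut at about 60% in these data, passing the limit was not always enough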
PKD1 inh = inhibitors of human PKD1 kinase, biochemical, fluorescence polarization; 0.056% of 200,000 active; PKD1 kinase fluorescence polarization assay; inhibition, %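 (about 10 µM by stock and volumes)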;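 active = inhibition of 50% or more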;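 also: controls were vehicle for no effect and a reference inhibitor for full effect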
RGS16-Gao = modulators of RGS16 binding to Galphao, primary screen, biochemical, human proteins, multiplexed bead flow cytometry; bead-based flow cytometry RGS16-Galphao binding, fluorescence; actives lie on both sides; binding response (% of control), % at 10 µM; 0.38% of 220,000 active; AID 1441, 2008;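 active = below 25% or above 175%, edge rows of some plates excepted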;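 also: Galphao activated by GDP with aluminum fluoride before binding; 100% = wells without compound and 0% = beads without RGS; some results beyond the cut were filed as inactive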
Target sequence (O15492 whole entry, looked up): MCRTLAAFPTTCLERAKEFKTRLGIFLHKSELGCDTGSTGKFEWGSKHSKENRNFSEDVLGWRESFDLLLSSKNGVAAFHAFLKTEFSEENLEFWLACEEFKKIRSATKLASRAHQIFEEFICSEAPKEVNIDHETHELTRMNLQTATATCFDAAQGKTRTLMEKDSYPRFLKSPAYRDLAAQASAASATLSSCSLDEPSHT
Target sequence (P09471 whole entry, looked up): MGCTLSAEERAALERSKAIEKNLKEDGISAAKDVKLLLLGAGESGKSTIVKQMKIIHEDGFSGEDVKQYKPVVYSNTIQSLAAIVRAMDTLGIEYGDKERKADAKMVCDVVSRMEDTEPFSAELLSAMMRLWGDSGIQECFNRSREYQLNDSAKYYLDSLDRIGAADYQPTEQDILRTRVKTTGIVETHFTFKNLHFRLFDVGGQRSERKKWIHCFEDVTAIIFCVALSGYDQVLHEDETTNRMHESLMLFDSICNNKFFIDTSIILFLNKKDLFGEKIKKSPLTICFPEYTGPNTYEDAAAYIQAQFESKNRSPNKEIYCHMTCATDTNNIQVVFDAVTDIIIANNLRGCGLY
INS promoter inh cell count = also measured in INS promoter inh; calls as there; normalized cell count, %; measured here: cell count, toxicity; reference of the scale not given here;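 cells exposed to compound for 48 h; stained nuclei by imaging scaled within each plate; lower means fewer cells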
HSV augment primary fold = second read-out of HSV augment, no call of its own (marks repeat the call); fold increase; compound at 10 µM; measured here: primary screen fold increase 10 uM; tested in PC3 cells;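 GFP signal in the first replicate; 1 = infected wells without compound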
* marks the source's active call; other numbers are inactive results; i = inactive; · = no result given.

SMILES | HSV augment | HSV augment primary fold | GALR2 agonist | INS promoter inh | INS promoter inh cell count | PKD1 inh | RGS16-Gao
NC(=O)C(=O)N/N=C/c1c[nH]c2ccc(Br)cc12 | i | 1.1 | · | -61 | 68 | 5 | 98
COc1ccc(C(c2nnnn2CC2CCCO2)N2CCN(c3cccc(C)c3C)CC2)cc1 (stereo unspecified) | i | 0.94 | -0.6 | 6 | 110 | -7 | 78
N#CC(C#N)=NNc1ccc(S(=O)(=O)N2CCCC2)cc1 | i | 0.8 | 0.2 | -7 | 87 | 3 | 102
C/C(Cl)=C/CN1C(=O)C2C3C=CC(C3)C2C1=O (stereo unspecified) | i | 0.87 | -0.9 | 10 | 125 | 2 | 103
Cc1cc(C)nc(SCc2ccc(C(=O)O)o2)n1 | i | 1 | -2.1 | · | · | 3 | 98
CCOc1ccc(NC(=O)N(C2CCCCC2)C2CCN(C(C)=O)CC2)cc1 | i | 0.59 | -1.3 | · | · | -13 | ·
COCCCNC(=O)c1cccc(C(=O)NCCCOC)c1 | i | 0.81 | -3.3 | · | · | -17 | 89
Cc1ccc(C2=[N+]([O-])C3(CCCCC/C3=N\NC(N)=S)N(O)C2(C)C)o1 (stereo unspecified) | · | · | -1.3 | -9 | 101 | -5 | 46
Cc1cc(C)c2c(N)c(C(=O)c3cccc(Cl)c3)sc2n1 | i | 0.98 | -0.7 | · | · | 0 | 101
CCOc1c(Nc2ccccc2O)c(=O)c1=O | i | 0.86 | · | · | · | · | 98
O=C(CSc1nccc(=O)[nH]1)N1c2ccccc2CCc2ccccc21 | i | 0.65 | -1.6 | 50 | 161 | 7 | 111
CCOC(=O)CSc1nc(N(C)C)nc(N(C)C#N)n1 | i | 0.97 | 0.9 | 24 | 58 | -2 | 105
c1coc(CNc2ncnc3nc[nH]c23)c1 | i | 0.93 | -0.6 | -57 | 105 | 10 | 101
CC(C)C(NC(=O)c1ccc(F)cc1)C(=O)NCC1CCCO1 (stereo unspecified) | i | 1 | · | · | · | · | 98
CCCn1c(C)cc(C(=O)COC(=O)c2c(C)nn(-c3ccccc3)c2C)c1C | i | 0.82 | -2.7 | 17 | 104 | -2 | -34*
Cc1ccc(CNC(=O)c2cn(C3CCCCC3)c(=O)c3c2c2ccccc2n3C)o1 | i | 1 | -0.5 | -3 | 72 | -8 | 97
Cc1nc2c(=O)n(-c3cccc(C(F)(F)F)c3)nc(C)c2s1 | i | 1 | · | · | · | · | 103
CCSc1nnc(N(CCC#N)CCC#N)s1 | i | 0.94 | -1.0 | 22 | 50 | -4 | 107
Cc1nnc(NC(=O)CCSc2ccc(Cl)cc2)s1 | i | 0.98 | · | · | · | 4 | 102
O=C1CCCCCC1C1(O)C(=O)Nc2ccc(Br)cc21 (stereo unspecified) | i | 0.97 | 0.1 | 21 | 121 | 2 | 104
CC(C)N(C(=O)CSc1nnc(NC(=O)c2cccs2)s1)C(C)C | i | 0.97 | -1.2 | -10 | 96 | 0 | 111
CCOC(=O)c1sc(NC(=S)NC(=O)c2ccccc2)nc1C | i | 0.94 | · | -11 | 58 | -3 | 109
C=CCN(CC=C)C(=O)Nc1cc(OC)ccc1OC | i | 0.97 | · | · | · | · | 92
O=C(CN1CCCc2ccccc21)N/N=C/c1ccc(O)cc1O | i | 0.85 | -1.9 | · | · | 9 | 97
COc1ccccc1/C=N/NC(=O)CNC(=O)c1ccccc1 | i | 0.9 | · | · | · | · | 100
Cc1nn(CC2CC2)c(=O)n1-c1ccccc1 | i | 0.93 | · | · | · | -2 | 103
O=C1C(Cl)=C(NCC2CCCO2)C(=O)N1c1ccccc1 (stereo unspecified) | i | 1.1 | -1.7 | · | · | 0 | 99
CN1CCN(NC(=O)c2cc(S(=O)(=O)N3CCOCC3)c(Cl)cc2Cl)CC1 | i | 0.9 | -0.8 | 3 | 107 | -9 | 91
Cc1ccn(CCSCC(=O)O)n1 | i | 0.84 | -0.5 | 15 | 94 | 9 | 113
O=S(=O)(c1c(F)cccc1F)N1CCN(C(=S)NCc2ccc3c(c2)OCO3)CC1 | i | 0.97 | · | 27 | 99 | 0 | 63
Cc1cc(N2CCCN(C)CC2)nc2cc(Cl)ccc12 | i | 0.88 | -1.5 | 0 | 144 | -2 | 113
C(#CC12CC3CC(CC(C3)C1)C2)CN1CCOCC1 | i | 0.95 | · | 24 | 108 | -7 | 109
COc1cccc(Nc2nnc(SCc3cc([N+](=O)[O-])cc4c3OCOC4)s2)c1 | i | 0.93 | -2.7 | 24 | 105 | 0 | 98
Cc1oc(-c2ccccc2Cl)nc1CSCC(=O)NC1CCCC1 | i | 0.98 | -2.1 | 0 | 39 | 1 | 107
CCOC(=O)C1CCN(C(=O)COc2cc(C)c(Br)c(C)c2)CC1 | i | 0.92 | -1.5 | 17 | 125 | 0 | 100
O=[N+]([O-])c1ccc2c(c1)C=C1CCCCC1(N1CCCCC1)O2 (stereo unspecified) | i | 1 | -1.3 | -21 | 111 | 7 | 108
CCOc1cnn(-c2cc(Oc3ccc(C)cc3)ncn2)c(=O)c1Cl | i | 0.79 | -1.3 | -12 | 123 | -6 | 123
O=C(C1CCN(S(=O)(=O)c2cccs2)CC1)N1CCN(Cc2ccccc2)CC1 | i | 0.96 | · | 65 | 65 | -8 | 102
CN(Cc1cccs1)C(=O)CSc1nnnn1C | i | 0.95 | -1.7 | 67 | 60 | 4 | 98
CCCOc1ccc(/C=N/NC(=O)CSCc2ccc([N+](=O)[O-])cc2)cc1OCC | i | 0.93 | 0.4 | 36 | 52 | 9 | 130
Cc1ccc2cc(CN(Cc3ccc4c(c3)OCO4)Cc3nnnn3Cc3ccco3)c(=O)[nH]c2c1C | i | 0.83 | 3.3 | -44 | 140 | -1 | 94
O=C(c1cccc([N+](=O)[O-])c1)n1nc(-c2ccccc2)nc1NCc1ccccc1 | i | 1 | -1.3 | · | · | 5 | 102
O=C(NCC(=O)N(Cc1ccc(F)cc1)C(C(=O)NC1CCCC1)c1ccco1)c1ccco1 (stereo unspecified) | i | 1.1 | -1.9 | · | · | -5 | 100
Cc1nc(SCC(=O)O)c(C#N)c2c1CCCC2 | i | 1.4 | · | · | · | · | 98
O=C(COc1cccnc1[N+](=O)[O-])N1N=C(c2ccc(Cl)cc2)CC1c1ccco1 (stereo unspecified) | i | 0.88 | · | · | · | -6 | 95
COc1ccc(-c2cc(C(=O)Nc3ccccc3O)c3ccccc3n2)cc1OC | i | 0.86 | · | · | · | -9 | 96
C#CCNc1c2c(nc3nnnn13)CCCC2 | i | 0.97 | · | 25 | 118 | -4 | 101
COc1ccccc1OCC(=O)Nc1oc(-c2ccccc2)c(-c2ccccc2)c1C#N | i | 0.95 | -4.0 | 60 | 122 | 4 | 106
CCCC(CCC)C(=O)NNc1cc(=O)c2c(=O)n(C)c(=O)n(C)c2[nH]1 | · | · | -2.2 | · | · | 10 | 102
COc1ccc(-c2cn3cccnc3n2)cc1NC(=O)C1CCCC1 | i | 0.83 | -1.1 | · | · | -18 | 98
More structures follow:
SMILES | HSV augment | HSV augment primary fold | GALR2 agonist | INS promoter inh | INS promoter inh cell count | PKD1 inh | RGS16-Gao
CCOC(=O)C1=C(C)NC2=C(C(=O)c3ccccc32)C1c1cccnc1 (stereo unspecified) | i | 0.92 | 1.4 | -12 | 141 | 0 | 104
C/C(Cc1ccccc1)=N\NC(=O)CNC(=O)COc1cccc(C)c1 | i | 0.88 | · | · | · | · | 101
CCCNC(=O)C(Sc1ccccc1)c1ccccc1 (stereo unspecified) | i | 0.93 | -0.1 | -9 | 130 | -5 | 103
Cc1cccc(C)c1NC(=O)CSc1nnc(-c2ccoc2C)n1CCc1ccccc1 | · | · | -0.2 | · | · | 2 | 97
O=C(O)CCc1ccc(-c2cccs2)n1NC(=O)c1ccc(Cl)cc1Cl | i | 1.2 | -2.1 | -3 | 105 | -2 | 104
CC(CNc1ccc([N+](=O)[O-])cc1)NC(=O)c1ccccc1Br (stereo unspecified) | i | 1 | -2.9 | 17 | 94 | 6 | 101
CC1=CC(C)(C)N2C(=O)C3(C(C#N)=C(N)Oc4cc(O)ccc43)c3cccc1c32 (stereo unspecified) | i | 0.86 | -2.1 | -33 | 95 | -3 | 100
CC(NC(=O)COC(=O)CCc1ccccc1)c1ccccc1 (stereo unspecified) | i | 1.1 | -1.7 | 48 | 147 | -8 | 95
Cc1ccc2c(c1)nnn2C1CCN(CC(=O)NCc2ccccc2F)CC1 | i | 0.89 | · | · | · | 1 | 99
COc1ccc(CNC(=O)CN(CCC(C)C)S(=O)(=O)c2ccc3c(c2)OCCO3)cc1 | i | 0.98 | -1.9 | 36 | 96 | -12 | 137
CCCCCC(=O)NNC(=O)c1ccc(-c2ccccc2)cc1 | i | 0.8 | -1.3 | -7 | 27 | -10 | 98
COCc1nnc(NC(=O)c2ccccc2Oc2ccccc2)s1 | i | 0.96 | · | -42 | 118 | 5 | 98
Cc1nc(C(=O)NC2CC2)sc1C1(C)CC(c2cccc([N+](=O)[O-])c2)=NO1 (stereo unspecified) | i | 0.73 | · | · | · | · | 98
O=C(O)/C=C/c1ccc(OCc2cccc(F)c2)cc1 | i | 1 | · | 20 | 99 | 1 | 103
Cc1cccc(C(=O)NC(=S)Nc2ccc(S(=O)(=O)N3CCCCC3)cc2)c1 | i | 0.94 | -1.6 | 14 | 131 | 0 | 97
COc1ccc(C2CC(c3ccccc3)=NN2C(=O)COC(=O)CNC(=O)c2ccccc2)cc1 (stereo unspecified) | i | 0.98 | 0.2 | 44 | 119 | -2 | 108
O=C(Nc1cccc(C(=O)N2CCCC2)c1)c1ccccc1 | i | 0.97 | -2.7 | 26 | 99 | -7 | 90
CCO[C@H]1OC(C(=O)N2CCOCC2)=C[C@@H](C)[C@@H]1CCCO | i | 0.78 | · | · | · | 5 | 98
O=C(NCc1ccco1)C(=O)NCC1OCCCN1S(=O)(=O)c1ccc(F)cc1 (stereo unspecified) | i | 0.92 | · | -40 | 110 | -2 | 107
O=Nc1c(-c2ccccc2)cc2ccccn12 | i | 0.78 | · | · | · | -4 | 104
CN(C)CCCN1c2ccccc2CCc2ccc(Cl)cc21 | i | 0.8 | 0.5 | -129 | 122 | -6 | 84
Cc1ccc(N(CC(=O)NCCSCc2ccco2)S(C)(=O)=O)cc1 | i | 0.94 | 0.4 | -14 | 134 | -6 | 91

3 structures from above, ordered by formula weight, low to high:
SMILES | HSV augment | HSV augment primary fold | GALR2 agonist | INS promoter inh | INS promoter inh cell count | PKD1 inh | RGS16-Gao
O=C1C(Cl)=C(NCC2CCCO2)C(=O)N1c1ccccc1 (stereo unspecified) | i | 1.1 | -1.7 | · | · | 0 | 99
COc1ccccc1/C=N/NC(=O)CNC(=O)c1ccccc1 | i | 0.9 | · | · | · | · | 100
CCCn1c(C)cc(C(=O)COC(=O)c2c(C)nn(-c3ccccc3)c2C)c1C | i | 0.82 | -2.7 | 17 | 104 | -2 | -34*

Structures shown so far with two or more sulfur atoms:
SMILES | HSV augment | HSV augment primary fold | GALR2 agonist | INS promoter inh | INS promoter inh cell count | PKD1 inh | RGS16-Gao
CCSc1nnc(N(CCC#N)CCC#N)s1 | i | 0.94 | -1.0 | 22 | 50 | -4 | 107
Cc1nnc(NC(=O)CCSc2ccc(Cl)cc2)s1 | i | 0.98 | · | · | · | 4 | 102
CC(C)N(C(=O)CSc1nnc(NC(=O)c2cccs2)s1)C(C)C | i | 0.97 | -1.2 | -10 | 96 | 0 | 111
CCOC(=O)c1sc(NC(=S)NC(=O)c2ccccc2)nc1C | i | 0.94 | · | -11 | 58 | -3 | 109
O=S(=O)(c1c(F)cccc1F)N1CCN(C(=S)NCc2ccc3c(c2)OCO3)CC1 | i | 0.97 | · | 27 | 99 | 0 | 63
COc1cccc(Nc2nnc(SCc3cc([N+](=O)[O-])cc4c3OCOC4)s2)c1 | i | 0.93 | -2.7 | 24 | 105 | 0 | 98
O=C(C1CCN(S(=O)(=O)c2cccs2)CC1)N1CCN(Cc2ccccc2)CC1 | i | 0.96 | · | 65 | 65 | -8 | 102
CN(Cc1cccs1)C(=O)CSc1nnnn1C | i | 0.95 | -1.7 | 67 | 60 | 4 | 98
Cc1cccc(C(=O)NC(=S)Nc2ccc(S(=O)(=O)N3CCCCC3)cc2)c1 | i | 0.94 | -1.6 | 14 | 131 | 0 | 97
Cc1ccc(N(CC(=O)NCCSCc2ccco2)S(C)(=O)=O)cc1 | i | 0.94 | 0.4 | -14 | 134 | -6 | 91
